# fixLJ activator: activators of Burkholderia fixLJ two-component system; B. multivorans fixK-promoter GFP reporter, 18 h; active compounds read high; actives 0.3% (n = 29,000); z-score (no concentration beside the values);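 active = replicate mean overnight rise in green fluorescent reporter signal, 3 or more SD over negative controls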;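 also: score is relative to vehicle wells of the plate; 300 nL library stock went into each well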
# Starred values were filed as active, the others as inactive. An excerpt; count on the stated rates, not on these rows.
SMILES	fixLJ activator
CCCOc1ccc(C(=O)NCC(c2ccc(OC)cc2)N2CCCCC2)cc1 (stereo not drawn)	-1.6
Cc1ccc(NC(=O)CSc2nncn2C)c(C)c1	-2.3
Cc1ccc(-c2nc(NCc3nnc4n3CCC4)ncc2-c2ccncc2)cc1	0.6
CCCCC(=O)NC1(C(F)(F)F)C(=O)Nc2c1c(=O)[nH]c(=O)n2-c1ccc(C)c(C)c1 (stereo not drawn)	-1.1
O=C(NCCc1noc(C2CCCO2)n1)c1nc2ccccn2c1F (stereo not drawn)	-1.9
COc1ccc(NC(=O)CCc2nnc3n(C)c(=O)c4sccc4n23)cc1	1
COc1ccc(NC(=O)c2c(N)c(C(=O)c3ccc(C)cc3)n3ccccc23)cc1OC	-1.5
CC(C)CCN1C(=O)c2ccccc2CC1(C)C(=O)NC1CCCCC1 (stereo not drawn)	0.55
COc1ccc(NC(=O)Cn2c(=O)n(-c3ccc(CC(=O)NCC4CCCO4)cc3)c(=O)c3ccccc32)c(OC)c1 (stereo not drawn)	-1.6
O=C1c2[nH]nc(-c3ccccc3O)c2C(c2ccc(Cl)cc2)N1CCc1ccccc1 (stereo not drawn)	-0.68
O=C(Nc1ccc2oc(-c3ccc4ccccc4c3)nc2c1)c1ccccc1F	-2.2
Cc1cccc(NC(=O)C2(C)Cc3ccccc3C(=O)O2)c1 (stereo not drawn)	-1
Cc1cc(NC(=O)C2CCN(S(=O)(=O)c3cccc4nsnc34)CC2)ccc1Br	-1.2
CCc1oc(C(=O)N2CCCN(c3ccncc3C)CC2)cc1CN1CCCC1	-0.04
Cc1cccc(CC(=O)N2CCCN(C(=O)CCn3cnnc3)CC2)c1	0.57
CCOC(=O)c1ccc(N2C(=O)c3n[nH]c(-c4ccco4)c3C2c2ccc(O)c(OCC)c2)cc1 (stereo not drawn)	0.37
COc1ccc(CN2CC3CCC(C2)N(C(=O)c2ccc(C#N)cc2)C3)cc1 (stereo not drawn)	-0.06
CCC(=O)NCc1cc2n(n1)CCN(Cc1nc(C)no1)C2	-1.1
CCOC(=O)N1CCN(c2ncc3c(n2)CC(c2ccccc2O)CC3=O)CC1 (stereo not drawn)	-1.6
COCCn1c(CCC(=O)Nc2ccc(OC)c(OC)c2)nc2cccnc21	-0.77
Cc1cc(C)c(NC(=O)C2CCN(c3nn4c(=O)cc(C)nc4s3)CC2)c(C)c1	-0.47
CCN(C(=O)CCc1nc(-c2ccc(C)cc2)no1)c1cccc(Cl)c1	0.49
O=C(CCN1CCOCS1(=O)=O)N1CCCc2ccccc21	-1.1
CCOC(=O)C1CCCN(C(=O)Cn2ncc3c4ccccc4n(C)c3c2=O)C1 (stereo not drawn)	-2.1
Cc1cc(C)cc(CN2CCN(C(=O)c3c4c(nn3C)CCCC4)CC2=O)c1	-1.2
COc1cccc(NC(=O)CCN2CCN(CCO)CC2)c1	1.6
CC(C)Cn1c(CN2CCN(c3cccc(Cl)c3)CC2)nc2c1c(=O)[nH]c(=O)n2C	2.7
CCOc1ccc(NC(=O)c2cn(C)c(=O)c3cc(OC)c(OC)cc23)cc1	-0.88
O=C(NCCCn1cc(Cl)cn1)C1CCN(C2CCOCC2)CC1	-0.99
Clc1ccc(CNc2ncnc3onc(-c4ccc(Cl)cc4)c23)cc1	0.61

# Overlap with the part before: three compounds, followed by the next part.
SMILES	fixLJ activator
CCOc1ccc(NC(=O)c2cn(C)c(=O)c3cc(OC)c(OC)cc23)cc1	-0.88
O=C(NCCCn1cc(Cl)cn1)C1CCN(C2CCOCC2)CC1	-0.99
Clc1ccc(CNc2ncnc3onc(-c4ccc(Cl)cc4)c23)cc1	0.61
CC(C)(C)c1ccc(C2NC(=O)c3n[nH]c(-c4cccs4)c32)cc1 (stereo not drawn)	-2.5
CC1CCN(Cc2cc3n(n2)CCN(C(=O)CCCn2cncn2)C3)CC1	0.32
O=C(CCS(=O)(=O)c1cc(Br)cc2c1N(C(=O)C1CC1)CC2)N1CCN(c2cccc(C(F)(F)F)c2)CC1	-1.1
CCCN(CCC)C(=O)Cn1c(=O)n(-c2ccc(Cl)cc2)c(=O)c2c3c(sc21)CCCCC3	-1.2
Cc1ccc2oc(-c3ccc(C)c(NC(=O)c4ccc(N5CCC(C)CC5)c([N+](=O)[O-])c4)c3)nc2c1	-1.2
CCOC(=O)C1CCCN(CCC(=O)Nc2cccc(C)c2)C1 (stereo not drawn)	0.13
CCC12CN3CC(CC)(CN(C1)C3c1cccc(OC)c1O)C2=O (stereo not drawn)	-0.42
COc1cc(NC(=O)CNC(=O)Cn2ccc3ccccc3c2=O)cc(OC)c1OC	0.69
COc1cc(NS(C)(=O)=O)ccc1Cc1c2ccccc2nc2ccccc12	-1.7
O=C(c1cccc(Cl)c1)N1CCC(c2nc3c(nnn3Cc3ccc(F)cc3F)c(=O)[nH]2)CC1	-0.59
CCOC(=O)c1ccc(N2C(=O)c3n[nH]c(-c4ccco4)c3C2c2cccc(O)c2)cc1 (stereo not drawn)	0.84
Cc1cccc(C2CC(=O)Oc3c2c(=O)n(C)c2ccccc32)c1 (stereo not drawn)	0.76
O=C(NCCCn1ccnn1)Nc1ccnn1C1CCCCC1	-0.95
COc1ccc(-c2cc3nc(C)c(CCC(=O)N4CCN(c5cc(C)ccc5C)CC4)c(C)n3n2)c(OC)c1	-0.01
COc1ccc(N2CCN(C(=O)CCS(=O)(=O)c3cc(Br)cc4c3N(C(=O)C3CC3)CC4)CC2)cc1	0.26
CC1=C(C(=O)Nc2cccnc2)C(c2cccc(F)c2)n2nc(SCc3ccccc3F)nc2N1 (stereo not drawn)	-2.8
CN1CCN(c2c(F)cc3c(=O)c(C(=O)O)cn(CCF)c3c2F)CC1	-0.87
CCc1ccc2oc(-c3cccc(NC(=O)c4ccc(N5CCC(C)CC5)c([N+](=O)[O-])c4)c3)nc2c1	0
COc1ccc(OC)c(NC(=O)c2cc3c(s2)-c2ccccc2SC3)c1	-0.42
COc1ccc(C)cc1Nc1nc2ccccc2c2nnc(C)n12	-0.29
CCCCOc1ccc(C(=O)Nc2onc3c2CCCC3)cc1	-2.5
CCOc1ccc(CCNC(=O)c2ccc3c(c2)N(Cc2ccccc2)C(=O)c2ccccc2S3=O)cc1OCC (stereo not drawn)	1.1
Cc1nnc2c(N3CCN(c4ccccc4)CC3)nc3ccc(C(=O)c4ccccc4)cc3n12	-0.48
CCCSc1nnc(NC(=O)Cc2coc3cc(C)ccc23)s1	-0.53
COc1ccc(-c2nn(-c3ccccc3)cc2C2NC(=O)NC(C)=C2C(=O)OC(C)C)cc1OC (stereo not drawn)	-1
CC(C)(C)c1ccc(OCC(=O)Nc2ccc(C(=O)OC3CCCCC3)cc2)cc1	1
COc1ccc(-c2nc3ccccc3n3c(-c4ccccc4)c4c(=O)n(C)c(=O)n(C)c4c23)cc1OC	-1.6
Cc1cccc(-c2nc(CS(=O)CC(=O)NCc3ccc(Cl)cc3)c(C)o2)c1 (stereo not drawn)	-1.2
Cc1ccc(NC(=O)Nc2ccc3snnc3c2)cc1C	-4.5
COc1ccc(CNC(=O)Cc2c(C)c3cc4c(C)coc4cc3oc2=O)cc1	-2.2

# Shown with each value named: part of the list above
canonical_smiles: COc1ccc(-c2cc3nc(C)c(CCC(=O)N4CCN(c5cc(C)ccc5C)CC4)c(C)n3n2)c(OC)c1
- fixLJ activator: -0.01
canonical_smiles: COc1ccc(N2CCN(C(=O)CCS(=O)(=O)c3cc(Br)cc4c3N(C(=O)C3CC3)CC4)CC2)cc1
- fixLJ activator: 0.26
canonical_smiles: CC1=C(C(=O)Nc2cccnc2)C(c2cccc(F)c2)n2nc(SCc3ccccc3F)nc2N1 (stereo not drawn)
- fixLJ activator: -2.8
canonical_smiles: CN1CCN(c2c(F)cc3c(=O)c(C(=O)O)cn(CCF)c3c2F)CC1
- fixLJ activator: -0.87

# Carrying on.
SMILES	fixLJ activator
CCc1nccn1CCCNC(=O)c1cnc2c(c1)nc(N)n2CC	0.18
Cc1ccc(C)c(NC(=O)Cn2c(=O)n(-c3ccc(CC(=O)NCC4CCCO4)cc3)c(=O)c3ccccc32)c1 (stereo not drawn)	-1.5
CN(Cc1noc(C2CC2)n1)C(=O)c1cc(COc2ccccc2)[nH]n1	0.39
COc1cccc(SCC(=O)NC2CCN(C(=O)N3CCCC3)CC2)c1	0.82
COc1ccccc1-c1cc(C(F)(F)F)nc(S(=O)(=O)CCCC(=O)Nc2cc(C)ccc2O)n1	-1.1
O=C(c1ccccc1)N1CCCCC1CCN1CCCCC1 (stereo not drawn)	-1.4
CCC(C)Cc1nc(-c2ccc(C(=O)N3CCOCC3)cc2)n(-c2cnn(C)c2)n1 (stereo not drawn)	-1.2
Cc1cccc(Nc2nnc(-n3nc(C)cc3C)c3ccccc23)c1	0.32
CCc1nn(CCCC(=O)N2CCN(c3cc(Cl)ccc3C)CC2)c(=O)c2cc3occc3n12	-2.9
Cc1cccc(-c2noc(CNC(=O)c3ccco3)n2)c1	-0.46
COc1ccccc1NC(=O)Cn1c(=O)n(-c2ccc(C)cc2)c(=O)c2ccc(C(=O)NCc3ccco3)cc21	0.43
Cc1ccc2nc(-c3ccc(Cl)c(NC(=O)COc4ccc(C(C)C)cc4)c3)oc2c1	-2.5
CN1CCc2c(sc3c2C(=O)NC(c2ccc(C(C)(C)C)cc2)N3)C1 (stereo not drawn)	-0.61
Cc1ccc(C)c(CN2C(=O)c3ccccc3S(=O)c3ccc(C(=O)NCCC4=CCCCC4)cc32)c1 (stereo not drawn)	0.69
CN(Cc1ccon1)S(=O)(=O)c1cccc(C(=O)NCC2CCOCC2)c1	-0.03
COC(CNC(=O)N(Cc1cccnc1)CC(C)C)c1cccs1 (stereo not drawn)	-1.1
COc1ccc2oc(-c3cccc(NC(=O)c4ccc(C#N)cc4F)c3)nc2c1	-1.3
COc1ccccc1N1CCN(c2ncnc3c2nc2n3CCCC2)CC1	-2.5
CCn1c(=O)cc(SCC(=O)Nc2cc(Cl)ccc2OC)c2ccccc21	1.1
CCc1nn(CC(=O)NCCCOC)c(=O)c2cc3ccccc3n12	-0.29
CN1CCC[C@]2(C(=O)O)CCN(C(=O)c3ccc4ccccc4c3)C[C@H]12	-0.23
CCN1C(C(=O)c2ccccc2)=C(OC(=O)c2ccccc2OC)c2ccccc2S1(=O)=O	1.5
CCc1ccc(-c2cc(C(=O)N3C[C@@H]4COC[C@H](C3)N(C)C4)[nH]n2)cc1	-1.4
COC(=O)C1=C(C)N=C2SCCC(=O)N2C1c1ccc(OCc2ccccc2)c(OC)c1 (stereo not drawn)	-2.5
COc1ccc(CNC(=O)CCNS(=O)(=O)c2ccc3c(c2)oc(=O)n3C)cc1	0.28
COc1ccc(-n2c(=O)c3c4c(sc3n(CC(=O)N3CCCCC3C)c2=O)CCC4)c(OC)c1 (stereo not drawn)	-1.1
O=C(O)CCCC(=O)N(Cc1cccnc1)Cc1ccsc1	-3.5
COc1ccc(CNC(=O)c2ccc(NC(=O)N3CCSc4ccccc43)cc2)cc1	0.23
CC(=O)c1c(C)oc2c1cc(NS(=O)(=O)c1ccc(Cl)c(C)c1)c1ccccc12	0.36
CCOC(=O)CNC(c1ccccc1)c1cc(Br)ccc1NC(=O)c1ccc(Cl)cc1 (stereo not drawn)	0.47
CN(Cc1nc2ccccc2c(=O)[nH]1)C(=O)c1ccc(-c2ccccc2)n1C	-1.1
CC(C)c1nc(NCC(O)c2ccccc2)c2cnn(C)c2n1 (stereo not drawn)	-0.07
CCCc1nc(C)cc(NCc2ccc3c(c2)n(C)c(=O)n3C)n1	-1.1
Cc1ccc(-c2csc(=Nc3ccccc3)n2Cc2ccc3c(c2)OCO3)cc1C	-0.36
CCOc1ccc(NC(=O)CC2C(=O)N(c3ccccc3)C(=O)N2C2CCCCC2)cc1 (stereo not drawn)	-2
Cc1cc(C)c2[nH]c(C(=O)N(C)CCc3cn[nH]c3)c(C)c2c1	1.1
Cn1c(=O)c2sccc2n2c(CCC(=O)NCc3ccccc3Cl)nnc12	-0.54
Cc1cccc(NS(=O)(=O)c2ccc3c(c2)CCN3C(=O)C2CC2)c1C	-1.9
Cc1ccc2oc(=O)n(CCCOc3ccc(Cl)cc3)c2c1	0.85
Cc1ccc2oc(C(=O)Nc3sc4c(c3C(=O)NCC3CCCO3)CCC4)cc(=O)c2c1 (stereo not drawn)	-1.4
COc1nccnc1N1CCCC(CNC(=O)c2ccco2)C1 (stereo not drawn)	0.71
Cc1cccc(CCNC(=O)CN(c2ccc(C(C)C)cc2)S(=O)(=O)c2c(C)nn(C)c2C)c1	-0.74
Cc1ccc(OC2CN(C(=O)c3nc(N)nc4c3CCCC4)C2)cc1	0.65
COc1ccc(NC(=O)c2coc(=O)c3ccccc23)cc1OC	1.3
CCn1ncc(S(=O)(=O)NC2COCC2Cc2ccnc3ccccc23)c1C (stereo not drawn)	-2.3
COCCN(CC=Cc1ccccc1)Cc1ccc2nonc2c1	0.18
CCOc1ccc(S(=O)(=O)c2c(C(=O)c3ccc(C)c(C)c3)cnc3ccccc23)cc1	-3.1
COc1ccc(N(CC(=O)N2CCN(c3ccccc3)CC2)S(=O)(=O)c2c(C)nn(C)c2C)cc1	-0.67
CCOC(=O)c1sc(NC(=O)COc2ccccc2Cl)c(C(=O)OCC)c1C	-0.55
COc1ccccc1CNC(=O)c1ccc(Nc2nc3ccccc3n3nnnc23)cc1	-1.2
O=C(CCCCn1c(=O)c2ccccc2n(Cc2ccccc2Cl)c1=O)NCc1ccc2c(c1)OCO2	-1.8
CCOC(=O)c1cnc2c(OC)cccc2c1N1CCN(c2ccccc2F)CC1	0.74
CCCS(=O)(=O)c1c(S(=O)(=O)CCC)c2cc(C(C)(C)C)ccn2c1C(=O)c1ccc(C)cc1	-0.45
